Screening results from PubChem.
HNF4A DNA FP: change in binding of human HNF4A to DNA, primary screen, biochemical, fluorescence polarization, FITC-DNA; activity change, % at 10 µM; Hepatocyte nuclear factor 4-alpha (Homo sapiens), P41235; 1 h; 360,000 tested, 0.3% active; in the data active means activity change above about 30%, passing the limit was not always enough;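 further: controls were the assay level and a saturating level of protein; the project sought stronger binding though the title names inhibitors; some compounds called inactive have numbers as strong as hits; positive values seem to mean higher polarization but the record does not say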
Target sequence (P41235 whole entry, looked up): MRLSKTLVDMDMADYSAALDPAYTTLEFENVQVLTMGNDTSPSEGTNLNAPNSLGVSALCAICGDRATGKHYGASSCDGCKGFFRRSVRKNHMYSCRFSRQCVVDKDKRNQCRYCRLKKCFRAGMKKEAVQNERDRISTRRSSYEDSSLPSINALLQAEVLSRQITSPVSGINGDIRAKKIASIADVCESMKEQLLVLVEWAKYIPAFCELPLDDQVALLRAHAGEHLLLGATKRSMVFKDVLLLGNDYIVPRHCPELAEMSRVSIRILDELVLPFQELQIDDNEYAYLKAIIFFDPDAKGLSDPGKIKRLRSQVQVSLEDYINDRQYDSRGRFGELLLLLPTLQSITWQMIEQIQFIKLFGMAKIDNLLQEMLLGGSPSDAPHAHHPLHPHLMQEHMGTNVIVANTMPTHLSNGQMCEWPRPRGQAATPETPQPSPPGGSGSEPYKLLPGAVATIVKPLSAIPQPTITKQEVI
ALR inh: inhibitors of human ALR sulfhydryl oxidase, primary screen, biochemical, H2O2 detection, HRP-luminol luminescence, single point | FAD-linked sulfhydryl oxidase ALR (Homo sapiens), P55789 | purified ALR, DTT oxidation | inhibition, % (concentration not given with the values) | 290,000 tested, 3.8% active;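 active means mean and each replicate at 75% or more; inconclusive means only one of the two met; inactive means neither met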;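 further: stock transfer was 7.5 nL into about 7.5 µL; 0% = neutral wells and 100% = wells with inactivated enzyme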
MLL AF4-AF9 inh: inhibitors of AF4 peptide binding to AF9, primary screen, biochemical, AlphaScreen, biotin-AF4 peptide, FLAG-AF9, single point; Protein AF-9 (Homo sapiens), P42568; AID 651704, 2012; inhibition, % at 10 µM; 350,000 tested, 0.47% active;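 active means every replicate reaching a set inhibition limit, whatever the replicate mean, cut at about 25% in these data; inconclusive means mean inhibition reaches that limit but some replicates miss it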;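 further: 0% = plate neutral control median and 100% = total signal loss; the record names both 10 and 1 µM as test concentration; the first replicate is given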
Target sequence (P42568 whole entry, looked up): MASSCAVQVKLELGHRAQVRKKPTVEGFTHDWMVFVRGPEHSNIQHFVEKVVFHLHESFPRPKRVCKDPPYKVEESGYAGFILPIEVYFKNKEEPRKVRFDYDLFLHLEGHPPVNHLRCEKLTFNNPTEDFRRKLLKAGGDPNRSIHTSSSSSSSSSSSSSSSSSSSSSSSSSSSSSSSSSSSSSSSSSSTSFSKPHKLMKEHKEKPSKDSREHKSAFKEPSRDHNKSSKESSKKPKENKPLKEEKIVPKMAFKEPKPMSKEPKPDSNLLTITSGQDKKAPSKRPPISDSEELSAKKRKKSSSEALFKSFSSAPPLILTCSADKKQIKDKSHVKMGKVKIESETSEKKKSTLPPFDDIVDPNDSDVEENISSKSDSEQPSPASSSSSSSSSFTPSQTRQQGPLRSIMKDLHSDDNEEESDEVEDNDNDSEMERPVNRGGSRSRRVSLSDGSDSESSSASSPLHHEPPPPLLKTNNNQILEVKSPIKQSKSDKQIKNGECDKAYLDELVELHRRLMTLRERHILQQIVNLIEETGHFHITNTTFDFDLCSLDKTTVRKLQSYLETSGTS
Vif TR-FRET: inhibitors of Vif binding to APOBEC3G peptide, primary screen, biochemical, TR-FRET, GST-Vif 1-94, biotin-A3G peptide, dose response retest (AID 1117319); one-dose inhibition, %; IC50 in µM for titrated hits; TR-FRET GST-Vif / biotin-A3G peptide binding; higher % means a stronger effect; test concentration not given here; strong numbers were not always called active; Virion infectivity factor (Human immunodeficiency virus type 1 group M subtype B (isolate …; 260,000 tested, 0.57% active;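 active means above the screen mean plus three standard deviations and confirmed in dose response; inconclusive means results disagree or hit not tested in dose response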;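 further: Vif residues 1-94 fused to GST binding biotinylated APOBEC3G peptide 110-148; 0% = full assay without inhibitor and 100% = GST in place of GST-Vif; retest series ran down from 100 µM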
Ecoli rRNA inh: reduced GFP signal of wild-type E. coli, primary screen, bacterial rRNA inhibitor project, GFP/RFP fluorescence, OD600, single point; GFP signal change (wild-type ribosome), % (no concentration beside the values); E. coli WT GFP vs humanized-ribosome RFP mutants, 24 h; stronger effect = lower value; DMSO median 0, no signal -100; AID 720706, 2013; 350,000 tested, 1.6% active;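 active means significant combined selectivity score with lowered wild-type GFP, culture density cut under 30%, mutant RFP and density less affected; inactive means any of these conditions unmet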; further: one replicate is shown; some compounds called inactive have numbers as strong as hits
FGF22 binding: binders of human FGF22 protein, primary screen, FGF22 synaptogenesis inhibitor project, biophysical, thermal shift, single point | recombinant FGF22 thermal shift, SYPRO orange fluorescence; percent of sucrose octasulfate shift, DMSO zero | calls only at 9.99 µM | Fibroblast growth factor 22 (Homo sapiens), Q9HCT0 | AID 651658, 2012 | 340,000 tested, 1.5% active;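 active means melting point raised past a set limit in the mean and every replicate; inconclusive means no clear call; three in four hits are not shown here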
E coli growth: E. coli growth inhibition, primary screen, OD600; OD600 absorbance (concentration not given with the values); Escherichia coli growth, 23 h; stronger effect = lower value; AID 1053175, 2014; 330,000 tested, 0.21% active;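 active means OD600 absorbance below the run mean of sample wells minus 3.6 SD, in any replicate, cut at about 0.56 in these data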;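 further: stock transfer was 300 nL into about 60 µL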
Ecoli rRNA inh OD600: second read-out of Ecoli rRNA inh, no call of its own (marks repeat the call); OD600 change, %; measured here: OD600 growth;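 optical density of the mix in the first replicate; 0 = DMSO median and -100 = no signal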
Ecoli rRNA inh RFP: second read-out of Ecoli rRNA inh, no call of its own (marks repeat the call); RFP signal change, %; measured here: RFP humanized mutant strains;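 first replicate; 0 = DMSO median and -100 = no signal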
* hit, by the source's call; i = inactive; ? = inconclusive; . = no result given; + = active, no number; & = joins results of further samples. A portion of the library (hit frequency here may not be typical).

SMILES | HNF4A DNA FP | ALR inh | MLL AF4-AF9 inh | Vif TR-FRET | Ecoli rRNA inh | Ecoli rRNA inh OD600 | Ecoli rRNA inh RFP | FGF22 binding | E coli growth
N/N=c1\sc2ccccc2n1-c1ccccc1 | -0.8 | 50.7 | . | 3.2% | -4.3 | -1.0 | 10.4 | . | .
CC1(C)Cc2c(cnn2-c2ccccc2)C(=O)/C1=N\NC(=O)c1ccccc1N | 1.5 | -3.3 | . | 5.4% | . | . | . | . | 0.727
COCCNC(=O)C[C@@H]1C[C@H]2c3cc(NC(=O)C4CCC4)ccc3O[C@H]2[C@@H](CO)O1 | . | . | -0.6 | . | 3.4 | 13.3 | -0.6 | i | .
O=C(Cn1cnc2c(NCc3ccccc3)ncnc21)NCCCN1CCCC1=O | -0.9 | . | -4.4 | 2.2% | 8.4 | 9.4 | -2.3 | i | 0.718
O=C(C1CCCO1)N1CCN(C(=S)Nc2ccccc2C(F)(F)F)CC1 (configuration not stated) | -0.3 | 2.4 | . | . | . | . | . | . | 0.71
C[C@H]1CN([C@@H](C)CO)S(=O)(=O)c2ccc(Br)cc2O[C@H]1CN(C)C(=O)c1cccc(F)c1 | 5.2 | . | 0.7&-0.4 | . | -1.5&-0.6 | -0.3&0.9 | -2.1&-1.0 | i | .
Cc1ccc(/C=C/C(=O)c2ccc([N+](=O)[O-])o2)cc1 | . | . | -2.4 | . | 4.6 | 12.4 | -1.6 | i | .
O=C(CCNC(=O)N1CCn2c1nc1ccccc12)NCc1ccccc1Cl | -3.5 | 26.6 | 2.1 | . | -1.8 | -7.0 | -1.7 | i | 0.659
COCCCNC(=O)CN(c1ccc(Cl)c(Cl)c1)S(C)(=O)=O | -2.4 | -1.9 | -1.0 | 29.5% | 8.2 | 0.9 | -3.3 | i | 0.638
CCC(=O)/C=C1\Sc2ccc(OC)cc2N1CC | 2.3 | ? | . | 7.1% | . | . | . | . | 0.651
COc1cc(S(=O)(=O)Nc2ccccc2C)ccc1NC(=O)c1ccncc1 | -1.0 | 5.5 | -1.0 | -3.1% | -1.1 | 1.5 | 3.1 | . | .
CN(Cc1ccccc1)C(=O)Cc1ccccc1 | -0.8 | -1.0 | 2.8 | 8.4% | 9.6 | 5.3 | -1.4 | i | 0.665
O=C(Nc1cccc(Cl)c1)Nc1c[nH]c(=O)[nH]c1=O | -3.3 | -3.0 | -0.5 | -8.1% | 6.8 | 12.4 | 12.6 | i | 0.698
NC(=O)C(NN=C(c1ccccc1)c1ccccc1)c1ccccc1 (configuration not stated) | 3.4 | . | 10.1 | -1.5% | -0.6 | 1.5 | 4.3 | i | .
Cc1ccc2ccccc2c1C(O)c1ncc(-c2ccccc2Cl)[nH]1 (configuration not stated) | -0.2 | . | 6.5 | . | -48.8 | -75.3 | -15.8 | i | .
Cc1ccccc1-c1ccc2c(c1)O[C@H](CN(C)C(=O)Nc1ccc(C(F)(F)F)cc1)[C@H](C)CN([C@H](C)CO)S2(=O)=O | . | . | 0.4 | . | 3.0 | 12.8 | 4.2 | i | .
COc1cccc(C(=O)Nc2c3c(nn2-c2ccccc2C)CS(=O)C3)c1OC (configuration not stated) | 3.3 | -2.4 | . | -2.3% | . | . | . | . | 0.711
O=C(C[C@H]1C=C[C@@H](NC(=O)c2ccccc2)[C@@H](CO)O1)NCc1ccncn1 | . | . | -2.3 | . | 2.2 | 8.6 | 3.0 | i | .
O=C(C[C@@H]1C[C@H]2c3cc(NC(=O)Nc4ccccc4F)ccc3O[C@H]2[C@H](CO)O1)NCCc1ccccc1 | . | . | 1.4 | . | -8.3 | -7.8 | 1.3 | i | .
C/C=C/c1cnc2c(c1)C(=O)N([C@H](C)CO)C[C@@H](C)[C@H](CN(C)Cc1cncnc1)O2 | . | . | -13.6 | . | 6.8 | 7.7 | -0.5 | i | .
CCOc1ccc(/C=C2\SC(N3CCc4ccccc4C3)=NC2=O)cc1 | -1.2 | -1.1 | . | 30.6% | . | . | . | . | 0.675
COc1ccccc1C(=O)CSc1ccccn1 | 5.8 | 5.2 | -0.7 | -0.8% | -6.1 | -3.8 | 0.9 | i | 0.688
Cc1cc(/C=C2\C(=N)N3N=C(C(C)C)SC3=NC2=O)c(C)n1-c1ccccc1 | 0.0 | 0.2 | -4.4 | 14.3% | -7.2 | -5.6 | 12.1 | i | .
C/C=C/c1ccc2c(c1)O[C@H](CN(C)C(=O)c1cnccn1)[C@H](C)CN([C@H](C)CO)S2(=O)=O | . | . | -0.5 | . | -2.3 | 11.9 | -1.4 | i | .
COc1cccc([C@@H]2CC=C(C(=O)O)[C@H](c3ccc(C)cc3)N2S(=O)(=O)c2ccc(C)cc2)c1 | 0.0 | . | -0.6 | . | -18.5* | -21.9* | 0.1* | i | 0.678

Reprinted from the part before: two compounds, then new ones.
SMILES | HNF4A DNA FP | ALR inh | MLL AF4-AF9 inh | Vif TR-FRET | Ecoli rRNA inh | Ecoli rRNA inh OD600 | Ecoli rRNA inh RFP | FGF22 binding | E coli growth
C/C=C/c1ccc2c(c1)O[C@H](CN(C)C(=O)c1cnccn1)[C@H](C)CN([C@H](C)CO)S2(=O)=O | . | . | -0.5 | . | -2.3 | 11.9 | -1.4 | i | .
COc1cccc([C@@H]2CC=C(C(=O)O)[C@H](c3ccc(C)cc3)N2S(=O)(=O)c2ccc(C)cc2)c1 | 0.0 | . | -0.6 | . | -18.5* | -21.9* | 0.1* | i | 0.678
Cc1cc(C=NCCCO)c(C)n1-c1cc(Cl)ccc1Cl | -3.6 | . | 0.3 | 4.5% | -19.5 | -15.6 | 0.9 | i | 0.717
COc1ccc(S(=O)(=O)Nc2cccc3c2O[C@H](CN(C)Cc2ccncc2)[C@H](C)CN([C@H](C)CO)C3=O)cc1 | . | . | 7.5 | . | 2.0 | 5.7 | -1.1 | i | .
CCOCCCNC(=O)C(NC(=O)Cc1cccs1)c1ccc(OC)cc1 (configuration not stated) | -2.0 | -2.6 | 0.8 | -7.1% | -2.5 | 2.4 | -3.7 | i | 0.736
O=C(C[C@@H]1CC[C@@H]2[C@H](COC[C@@H](O)CN2C(=O)Nc2cccc(F)c2)O1)NCc1ccccc1Cl | . | . | -1.9 | . | -14.8 | -40.9 | 10.8 | i | .
Cn1ccnc1C(O)c1cc(C(C)(C)C)c(O)c(C(C)(C)C)c1 (configuration not stated) | -1.4 | 28.5 | . | 5.8% | . | . | . | . | 0.7
Cc1noc(NS(=O)(=O)c2ccc(NC(=O)c3ccc(OC(C)C)cc3)cc2)c1C | -0.9 | 20.4 | -1.6 | -0.5% | -31.4* | -22.5* | -4.4* | i | 0.677
CCOc1ccc(N(CC(=O)Nc2c(C)cccc2C)S(=O)(=O)c2c(C)[nH]c(=O)[nH]c2=O)cc1 | -0.1 | -1.1 | -8.8 | . | 6.4 | 0.3 | -3.1 | i | 0.695
COc1ccccc1NC(=O)COC(=O)/C=C/c1ccc2c(c1)OCO2 | -2.1 | -0.6 | -2.3 | 21.5% | -14.8 | -11.8 | -2.8 | i | .
COc1ccccc1NC(=O)Cn1nc(Cc2cccnc2)c2ccccc2c1=O | -3.8 | . | -39.0 | -6.6% | 2.3 | 2.8 | -1.0 | i | 0.662
CC(=O)c1cccc(NC(=O)CSc2ncc(C(=O)Nc3ccccc3)c(=O)n2C)c1 | 2.2 | 98.6* | -23.2 | -4.4% | 6.7 | 7.9 | -1.4 | i | 0.675
C[C@H]1CN([C@@H](C)CO)C(=O)c2cccc(NC(=O)NC3CCCCC3)c2O[C@@H]1CN(C)Cc1ccc(Oc2ccccc2)cc1 | . | . | 2.1 | . | 0.3 | 4.5 | 0.6 | i | .
Fc1ccc(CNCc2cccc(Br)c2)cc1 | 2.5 | -10.3 | -0.6 | 0.3% | 10.6 | 1.6 | -8.2 | i | 0.672
Cc1cc(N2CCCC2=O)ccc1S(=O)(=O)NCCOc1ccccc1 | -0.2 | -4.8 | -2.5 | 1.7% | -7.1 | -7.3 | -2.1 | i | 0.67
Cc1ccc(-c2cc(C(F)F)n3ncc(C(=O)N4CCc5ccccc54)c3n2)cc1 | 1.8 | -30.1 | . | . | . | . | . | . | 0.735
Cn1cccc1CC(=O)NNC(=O)Nc1ccccc1F | 5.6 | . | 2.6 | -3.8% | -4.0 | -17.6 | -0.8 | i | 0.664
COc1cc2c(cc1OC)C(c1ccc(OC)c(OC)c1OC)CC(=O)N2 (configuration not stated) | -1.4 | -13.4 | 2.7 | . | 15.6 | 19.8 | 10.7 | i | 0.669
O=C(CN1C(=O)NC2(CCCCCC2)C1=O)c1ccc(Cl)s1 | 0.9 | 1.2 | -0.9 | 5.2% | -1.8 | -8.6 | 0.7 | i | 0.641
O=C(Nc1ccc(-c2ccccc2)cc1)[C@H]1[C@H](CO)[C@H]2Cn3c(cccc3=O)[C@H]2N1CC1CC1 | . | . | 4.9 | . | -11.9 | -51.0 | 20.0 | i | .
Cc1ccccc1-c1ccc([C@H]2[C@H](CO)N3CCCCN(C(=O)Nc4ccccc4)C[C@@H]23)cc1 | . | . | 9.1 | . | -57.9 | -73.7 | -18.8 | i | .
O=C(NCc1cccnc1)C1CCC(CNS(=O)(=O)c2cccc3nsnc23)CC1 (configuration not stated) | -2.9 | -7.6 | -2.0 | 0.2% | 8.5 | -2.8 | 3.6 | i | 0.734
COc1ccc(Cl)cc1NC(=O)CN(C)C(=O)c1cc(C)oc1C | 2.5 | . | 0.1 | -7.2% | 3.2 | -1.4 | 0.6 | i | 0.671
Cc1ccc(OCc2nnc(NC(=O)c3cccnc3)s2)cc1 | -0.5 | -2.9 | -0.1 | -5.3% | -1.8 | 1.0 | -2.0 | i | 0.664
COc1ccc(OC)c(-c2csc(NC(=O)CSc3ccccc3)n2)c1 | -4.6 | -7.7 | . | 0.0% | . | . | . | . | 0.746
CC(Oc1ccc(Cl)cc1)C(=O)Nc1ncccn1 (configuration not stated) | 1.8 | -3.3 | . | 69.1% | . | . | . | . | 0.671
CCOc1ccc(N2CC(C(=O)OCC(=O)c3ccc(OC)cc3)CC2=O)cc1 (configuration not stated) | 4.3 | -13.5 | 5.1 | . | -5.0 | -7.9 | 0.7 | i | 0.656
COc1ccc(/C=N/NC(=O)c2cccc([N+](=O)[O-])c2)cc1OC | -1.1 | -2.8 | -1.4 | 3.4% | 13.6 | 7.1 | 1.4 | + | .
CC(NC(=O)CSCc1ccccc1Br)c1ccccc1 (configuration not stated) | 3.2 | -9.5 | . | 0.8% | . | . | . | . | 0.66
O=C(C[C@@H]1CC[C@H]2[C@@H](COC[C@@H](O)CN2Cc2nccs2)O1)NCc1ccccc1F | . | . | -0.3 | . | 0.2 | 18.8 | -6.9 | i | .
Cc1ccc(C)c(NC(=O)c2nc(-c3ccccc3)n(-c3ccccc3)n2)c1 | 0.0 | -1.6 | . | -2.9% | . | . | . | . | 0.702
Oc1ccc(C(=S)N2CCCCC2)cc1Cl | 5.8 | 44.5 | . | 4.3% | . | . | . | . | 0.692
